GALR2 ag = GALR2 (human) receptor agonism | 0.48% of 140,000 active | O43603 | activation, %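 (tested at 5 µM)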 | GALR2-expressing cells, agonist activation read-out;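 active means above mean plus 3 SD of all compounds, about 5% in these data, not always enough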;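 further: 0% = vehicle buffer wells and 100% = reference agonist at full effect; tested in CHO reporter cells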
Target sequence (O43603 whole entry, looked up): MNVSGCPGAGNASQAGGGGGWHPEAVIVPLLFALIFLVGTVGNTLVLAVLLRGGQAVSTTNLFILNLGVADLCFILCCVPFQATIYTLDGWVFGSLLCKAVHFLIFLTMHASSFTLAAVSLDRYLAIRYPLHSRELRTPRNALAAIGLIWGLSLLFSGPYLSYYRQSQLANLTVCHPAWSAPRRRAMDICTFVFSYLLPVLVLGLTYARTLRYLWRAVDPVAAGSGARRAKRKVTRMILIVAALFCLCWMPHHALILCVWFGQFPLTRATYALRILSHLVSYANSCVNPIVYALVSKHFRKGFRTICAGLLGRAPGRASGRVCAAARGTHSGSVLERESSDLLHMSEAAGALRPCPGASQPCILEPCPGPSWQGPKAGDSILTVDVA
INS promoter inh = TRM-6 insulin promoter activity inhibition | 0.9% of 130,000 active | TRM-6 cells (human fetal islet line), insulin promoter-eGFP reporter, imaging; reporter expression induced with tamoxifen | AID 1273 | inhibition, % at 2 µM;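 active means inhibition above the mean plus 3 SD, with well images judged a real hit on visual review, cut at about 60% in these data, passing the limit was not always enough; inconclusive means inhibition over the cutoff but images rejected on review; inactive means inhibition not above the cutoff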
RGS16-Gao HTS = RGS16-Galphao interaction regulator (human); 0.38% of 220,000 active; bead-based flow cytometry RGS16-Galphao binding, fluorescence; actives lie on both sides; binding response (% of control), % at 10 µM; O15492+P09471; AID 1441;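 active means below 25% or above 175%, edge rows of some plates excepted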;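 further: Galphao activated by GDP with aluminum fluoride before binding; 100% = wells without compound and 0% = beads without RGS; some results beyond the cut were filed as inactive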
Target sequence (O15492 whole entry, looked up): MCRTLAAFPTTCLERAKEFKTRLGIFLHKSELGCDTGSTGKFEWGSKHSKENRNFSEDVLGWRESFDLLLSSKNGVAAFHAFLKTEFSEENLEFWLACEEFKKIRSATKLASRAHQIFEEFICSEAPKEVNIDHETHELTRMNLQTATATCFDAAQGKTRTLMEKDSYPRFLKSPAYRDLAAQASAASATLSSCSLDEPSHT
Target sequence (P09471 whole entry, looked up): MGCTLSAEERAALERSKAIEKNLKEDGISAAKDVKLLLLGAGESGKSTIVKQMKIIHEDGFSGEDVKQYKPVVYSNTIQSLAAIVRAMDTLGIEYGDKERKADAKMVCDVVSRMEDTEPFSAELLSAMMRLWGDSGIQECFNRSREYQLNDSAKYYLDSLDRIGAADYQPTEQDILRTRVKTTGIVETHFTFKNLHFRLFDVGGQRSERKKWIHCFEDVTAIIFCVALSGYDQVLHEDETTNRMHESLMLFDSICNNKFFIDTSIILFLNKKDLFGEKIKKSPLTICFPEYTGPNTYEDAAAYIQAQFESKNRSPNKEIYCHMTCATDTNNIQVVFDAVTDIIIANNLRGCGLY
HSV replic up = increases HSV replication in cells; HSV replication augmentation in cells, fold increase; maximum fold increase; 0.005% of 220,000 active;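 active means peak rise of 1.5-fold or more in the series; inconclusive means self-fluorescent or not available for retest; tested in PC3 cells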;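 further: first round at 10 µM; read as green reporter fluorescence; hits show the peak of a series up to 25 µM; 1 = signal of infected wells without compound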
PKD1 inh = inhibitors of human PKD1 kinase; PKD1 kinase fluorescence polarization assay; Q15139; inhibition, %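 (about 10 µM by stock and volumes)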; 0.056% of 200,000 active; AID 797;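 active means inhibition of 50% or more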;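 further: controls were vehicle for no effect and a reference inhibitor for full effect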
INS promoter inh cell count = further read-out of INS promoter inh, marked with its call; normalized cell count, %; measured here: cell count, toxicity; reference of the scale not given here;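 cells exposed to compound for 48 h; stained nuclei by imaging scaled within each plate; lower means fewer cells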
HSV replic up primary fold = recorded beside HSV replic up, whose call it bears; fold increase; compound at 10 µM; measured here: primary screen fold increase 10 uM; tested in PC3 cells;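 GFP signal in the first replicate; 1 = infected wells without compound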
Starred values were filed as active, the others as inactive; i = inactive; ? = inconclusive; / = no result given; & = joins results of further samples.

SMILES	GALR2 ag	INS promoter inh	INS promoter inh cell count	RGS16-Gao HTS	HSV replic up	HSV replic up primary fold	PKD1 inh
COc1cc(-c2nnn(CC(=O)NC3CCS(=O)(=O)C3)n2)ccc1OCc1ccccc1 (stereo unspecified)	-0.5	33	133	106	i	1.2	3
Cc1c(C(=O)O)oc2ccc(S(=O)(=O)N3CCC(C)CC3)cc12	-1.4	8	117	110	i	0.97	-14
COc1ccc2nc3sc(C(=O)NCCCN4CCc5ccccc5C4)cc3cc2c1	-0.1	11	90	112	i	0.92	56*
Cc1ccc(CNC(=O)COc2ccc(C(=O)c3ccc(F)cc3)cc2)cc1	0.4	/	/	105	i	0.7	-6
Cc1cccc(-n2ccnc2CN2CCN(C(C)C)C(CCO)C2)c1 (stereo unspecified)	/	/	/	75	i	1.1	/
O=C(O)c1ccc(-n2cccc2)cc1O	-2.3	6	99	101	i	0.82	-8
CN(C)S(=O)(=O)c1cccc(C(=O)N2CCN(Cc3ccccc3)CC2)c1	-1.1	/	/	102	i	0.8	-2
COc1ccc(C(=O)Nc2ccc(C)cc2C(=O)c2ccccc2)c(OC)c1	1.1	/	/	123	i	0.95	1
COc1ccc(OC)c(NS(=O)(=O)c2cc(OC)ccc2OC)c1	3.5	17	51	100	i	1	2
CCN(CC)S(=O)(=O)c1ccc2nc(COC(=O)c3n[nH]c4ccccc34)[nH]c2c1	1.8	0	105	104	i	1	-12
Cc1ccc2c(Cn3cc(C(F)(F)F)cc(Cl)c3=O)cc(=O)oc2c1	3.9	-11	67	107	i	1	-3
COC(=O)c1ccc2c(=O)n(CCCCCC(=O)NCc3ccccc3)c(=O)[nH]c2c1	0.0	-36	119	130	i	0.98	-6
C/C(=N\NC(=O)Cn1nnc2ccccc21)c1ccco1	/	39	77	101	i	1.3	-4
Cc1ccnc(NS(=O)(=O)c2ccc(NC(=O)CSc3nc(-c4ccccc4)cc(=O)[nH]3)cc2)n1	/	/	/	97	i	0.92	-2
CC12CCC(C(=O)NNc3ccc([N+](=O)[O-])cc3)(CC1=O)C2(C)C (stereo unspecified)	-0.8	11	85	6	i	0.92	-3
Cc1cccc(NC(=O)c2nc[nH]c2C(=O)N[C@@H](C)C(=O)OCc2ccccc2)c1	/	/	/	96	i	0.86	/
O=C(CSc1nnc(CNC(=O)c2ccccc2F)o1)c1ccccc1	-2.7	-48	44	94	i	1	-10
O=C(Nc1ccc2c(c1)OCO2)c1ccc(Br)c(S(=O)(=O)N2CCCC2)c1	-0.2	-12	114	98	i	0.91	-5
COc1ccc(C(=O)NCc2ccccc2)cc1S(=O)(=O)N1CCCc2ccccc21	-0.2	-257	1	101	/	/	-10
COc1cc([N+](=O)[O-])ccc1NC(=O)CCCOc1ccccc1	-1.8	-58	105	104	/	/	-3
O=C(Nc1nnc(SCc2ccc(F)cc2)s1)c1ccc2ncsc2c1	-0.6	/	/	102	i	0.81	-3
FC(F)(F)c1ccc(N2CCN(Cc3ccc4c(c3)OCO4)CC2)nc1	0.5	-13	109	103	i	0.88	-8
CC(=O)c1ccc(NC(=O)C2CCCN2S(=O)(=O)c2ccc(C)cc2)cc1 (stereo unspecified)	-2.5	/	/	107	i	1.1	-11
CC(C)CNC(=O)c1cccc(NC(=O)c2ccc(Cl)c([N+](=O)[O-])c2)c1	1.2	-10	88	83	i	0.84	-3
O=c1cc(O)c2ccc(O)cc2o1	/	/	/	96	i	1.1	-4
O=C1NC(=Nc2ccccc2)S/C1=C\c1cccn1-c1ccccc1	-2.6	-59	101	98	i	0.93	7
Cc1cc(C)c(S(=O)(=O)NCCOc2ccccc2)c(C)c1-n1cnnn1	/	/	/	95	i	1.1	3
O=C(O)Cn1c(SC2CCCCC2)nc2ccccc21	-0.8	/	/	101	i	0.98	17
C1CCN(c2nc(N3CCCCC3)nc(N3CCNCC3)n2)CC1	-1.4	-9	105	101	i	0.98	-6
CS(=O)(=O)N1CCCC(C(=O)NCCc2ccc(Cl)cc2)C1 (stereo unspecified)	-2.1	/	/	64	i	0.95	-9
COc1cc([N+](=O)[O-])ccc1NC(=O)/C=C/C(=O)O	/	21	123	106	i	1	1
COc1cc(NC(=S)NC(C)=O)ccc1NC(=O)C(C)C	-0.1	8	108	102	i	0.97	-2
COc1ccc(-c2cnc(SCC(=O)Nc3cc(C)on3)n2Cc2ccco2)cc1	-2.3	-48	77	101	/	/	-14
Cc1ccc(NC(=S)N/N=C2\CC(C)(C)Oc3ccc(O)cc32)cc1	-2.9	12	51	95	i	1	8
O=C(O)CCC(=O)N1CCN(c2ncccn2)CC1	/	/	/	107	i	1.3	/
COCCn1c(COc2ccc(OC)cc2)nc2ccccc21	-2.5	25	115	104	i	0.86	-5
CCCCCCn1c(N)c(C#N)c2ccc([N+](=O)[O-])cc2c1=O	/	33	195	105	i	0.9	1
Cc1ccc(S(=O)(=O)Nc2nc3ccccc3nc2N2CCN(c3ccccc3F)CC2)cc1	-1.1	57	161	106	i	0.93	-7
CC1(C)CC2CC(C)(CN2C(=O)c2cc(-c3ccccc3O)on2)C1 (stereo unspecified)	-1.4	/	/	86	i	0.82	34
O=C(CS(=O)(=O)c1ccccc1)Nc1ccccn1	/	21	79	95	i	1.1	2
COc1ccc(N2C(=O)c3ccccc3NC2c2ccc(OC)c(CSc3ccccn3)c2)cc1 (stereo unspecified)	-1.3	-6	103	85	i	0.84	-21
CN(CC(=O)Nc1ccc2c(c1)OCCO2)S(=O)(=O)c1cccc2cccnc12	-0.5	/	/	151	i	1.2	-16
COC(=O)CSc1n[nH]c(-c2ccncc2)n1	-1.7	26	63	106	i	1	-2
Cc1csc(NC(=O)CCNC(=O)c2ccccc2Cl)n1	/	12	123	103	i	1	-1
COc1ccc(-c2nnc(SCC(=O)NC(=O)NCc3ccco3)o2)cc1	-0.1	46	104	97	i	0.96	-7
O=C(CNC(=O)c1ccccc1F)OCc1nc2ccccc2s1	/	/	/	103	i	0.86	4
CCNC(=O)Cc1c(OC)ccc2cc(Br)ccc12	/	/	/	103	i	0.96	2
S=C(NCCc1ccccc1)Nc1ccc(Cl)cc1	-2.4	6	167	109	i	0.96	0
Cc1ccccc1C(=O)/C=C1/SCC(=O)N1C	/	24	99	84	i	1.2	-10
CC(C)(C)c1ccccc1OCCOCCN1CCCCCC1	/	/	/	104	i	0.76	1
CC(=O)Nc1ccc(OC(=O)c2cc([N+](=O)[O-])ccc2Cl)cc1	0.1	27	111	98	i	0.79	-8
Cn1cc(CN2CCC(CO)CC2)c(-c2ccc(Oc3ccccc3)cc2)n1	/	/	/	99	i	0.97	-4
O=C(CSc1ncccn1)Nc1ccc(N2CCOCC2)cc1	-2.6	15	107	97	i	0.87	-3
COc1ccc(C2NC3=C(CCC3)C3(C#N)C4(N=C(N)C23C#N)OCCO4)cc1 (stereo unspecified)	-1.8	/	/	102	i	1	2
Cc1cc(=O)oc2cc(NC(=O)C3CC(=O)N(Cc4ccccc4)C3)ccc12 (stereo unspecified)	-1.7	43	80	101	i	0.99	-7
Nc1cc(C(F)(F)F)cc([N+](=O)[O-])c1N	/	22	75	120	i	0.98	1
COc1cc(C(=O)NCC(=O)OCc2ccccc2Cl)cc(OC)c1OC	/	26	65	101	i	1.1	-2
N#CCN1CCCC(C(N)=O)C1 (stereo unspecified)	/	/	/	104	i	0.96	-1
CCCCCCCCCCOC(=O)C[N+](C)(C)C/C=C(/C)Cl	-0.9	-39	88	107	i	0.79	-5
CCN(CC)C(=O)Oc1ccccc1NC(C)=O	-1.7	-225	132	102	i	0.93	-3

The list goes on:
SMILES	GALR2 ag	INS promoter inh	INS promoter inh cell count	RGS16-Gao HTS	HSV replic up	HSV replic up primary fold	PKD1 inh
OCCN(CCO)CC(O)COc1ccc(Br)cc1 (stereo unspecified)	/	/	/	111&87	i	1.2&0.95	/
Cc1ncc(S(=O)(=O)C(C)(C)C)c(N)n1	/	/	/	99	i	1	/
COc1cccc(-n2c(C)c3c(OC)cccc(=O)c3c2C)c1	/	/	/	98	?	/	16
COc1cc(OC)cc(C(=O)Nc2ccc(S(=O)(=O)Nc3cc(C)nc(C)n3)cc2)c1	-3.4	/	/	94	/	/	-2
O=C(CCNS(=O)(=O)c1ccc(Br)s1)NCc1ccccc1	/	6	92	101	i	0.94	-2
CC(=O)CCc1c(C)[nH]c2ccc(NC(C)=O)cc2c1=O	-0.9	-15	97	106	i	1	-4
CC(=O)c1cnc(Nc2nc(C)c3ccc(C)cc3n2)nc1C	-2.8	/	/	104	i	0.92	-5
CCC(C)NS(=O)(=O)c1ccc(NC(=O)C(Sc2ccccc2)c2ccccc2)cc1 (stereo unspecified)	-2.3	38	71	55	i	0.93	-11
CC(C)(C)c1cc(CN2CCOCC2)c(C(=O)O)o1	0.2	55	63	102	i	0.94	-13
CC(C)(C)NC(=O)C(c1ccccn1)N(C(=O)c1csnn1)C1CCCC1 (stereo unspecified)	/	/	/	99	i	0.93	/
O=C(c1ccco1)N1CCN(C(=O)c2ccc(COc3ccc(Cl)cc3Cl)o2)CC1	-0.8	-12	53	/	i	0.97	-2
CCN(CC)P(=O)(Nc1ccccc1Br)c1ccc(N(C)C)cc1NC(=O)c1ccco1 (stereo unspecified)	/	-57	92	67	i	0.93	-4

Another view of four compounds above.
SMILES,GALR2 ag,INS promoter inh,INS promoter inh cell count,RGS16-Gao HTS,HSV replic up,HSV replic up primary fold,PKD1 inh
O=C(CS(=O)(=O)c1ccccc1)Nc1ccccn1,/,21,79,95,i,1.1,2
COC(=O)c1ccc2c(=O)n(CCCCCC(=O)NCc3ccccc3)c(=O)[nH]c2c1,0.0,-36,119,130,i,0.98,-6
Cc1ccc(S(=O)(=O)Nc2nc3ccccc3nc2N2CCN(c3ccccc3F)CC2)cc1,-1.1,57,161,106,i,0.93,-7
COc1cc([N+](=O)[O-])ccc1NC(=O)CCCOc1ccccc1,-1.8,-58,105,104,/,/,-3

Further compounds follow.
SMILES	GALR2 ag	INS promoter inh	INS promoter inh cell count	RGS16-Gao HTS	HSV replic up	HSV replic up primary fold	PKD1 inh
Nc1cccc(C(=O)Nc2ccc(N)cc2Cl)c1	-0.8	10	116	92	i	0.85	-11
CCCCN(CC)CCNS(=O)(=O)c1ccc2c(c1)oc(=O)n2C	-1.6	/	/	109	i	1	0
Cc1ccc(S(=O)(=O)Cn2cnnn2)cc1	-0.3	/	/	97	i	0.88	5
O=C(c1ccc(Cl)nc1)c1cccs1	/	/	/	97	i	0.9	/
COc1ccc(C(=O)C2CCCN(C(=O)c3noc4c3CCCC4)C2)c(C)c1 (stereo unspecified)	/	/	/	94	i	0.89	0
CCOC(=O)N1CCc2c(sc(NC(=O)CN3CCOCC3)c2C#N)C1	/	/	/	94	i	0.99	/
CCc1ccc(-c2cc(C(=O)Nc3c(C)n(C)n(-c4ccccc4)c3=O)c3ccccc3n2)s1	-1.7	/	/	95	i	1	-11
Cc1c([N+](=O)[O-])c([N+](=O)[O-])nn1CC(=O)NCc1cccnc1	/	/	/	93	i	0.91	0
O=C(CSc1nnc(-c2c[nH]c3ccccc23)o1)N1CCCCC1	-1.1	/	/	97	i	0.94	3
O=C(O)c1cc(-c2ccc(Cl)cc2)n(-c2ccccc2)n1	/	64	164	98	/	/	9
Cc1ccc(C2N(c3ccc(F)cc3)C(=O)C3CCCN32)cc1 (stereo unspecified)	-0.9	/	/	100	i	1.2	-21
O=c1oc2ccccc2cc1-c1nc(-c2cccs2)cs1	0.6	/	/	157	i	0.96	0
Fc1ccccc1N1CCN(CCCNc2ccc3nncn3n2)CC1	-2.0	/	/	107	i	1	3
CN1C(=O)NC(NC(=O)C2CCCCC2)(C(F)(F)F)C1=O (stereo unspecified)	-0.5	-37	139	104	i	0.97	-2
O=C(c1ccoc1)N1CCC2(CC1)Oc1ccc(Cl)cc1C(=O)C21CC(c2ccccc2)=NO1 (stereo unspecified)	/	/	/	76	i	0.66	/
C=C(C)Cn1c(N2CCN(c3ccc(OC)cc3)CC2)nc2c1c(=O)n(C)c(=O)n2C	/	/	/	106	i	0.89	10
CCN(c1ccccc1)S(=O)(=O)c1ccc(Cl)c(NC(=O)CSc2nncs2)c1	-0.8	/	/	68	i	1.1	-4
CCOC(=O)C(CC)(CC)C(=O)/C=C/c1cccc(Br)c1	-0.8	47	75	/	i	0.6	-9
CSCCCNC(=O)c1ccccc1OC1CCN(S(C)(=O)=O)CC1	/	/	/	120	i	0.99	4
COCCN(C(=O)CC1C(=O)NCCN1Cc1ccc(-c2ccccc2)cc1)C(C)C (stereo unspecified)	/	/	/	100	i	0.89	-1
Cc1nc(C(=O)Nc2ccccc2)sc1C1(C)CC(c2cccnc2)=NO1 (stereo unspecified)	/	/	/	82	i	0.91	/

Screening results (PubChem BioAssay)
